Source: PubChem
Vaccinia Venus = vaccinia inhibition (Venus reporter); AID 720580; Vaccinia virus Venus reporter expression, fluorescence; Potency, µM (top dose mostly 36.5 µM), for the others: top-dose activity change, negative = inhibition, most hits filed as inhibitors; 330,000 tested, 0.46% active; active means well fitted inhibition curve with a large enough effect; inconclusive means small, poorly fitted or top-dose-only effect; inactive means no such curve, though single readings can be large or run the other way; tested in A549 cells; note: nearly all actives have a fitted effect of over 30% in size; inactives centre near -10
VACV mCherry inh = vaccinia inhibition (mCherry reporter); Vaccinia virus mCherry reporter infection, fluorescence; about a quarter of the inactives have no number; Potency, µM (top dose mostly 36.5 µM), for the others: at the highest dose activity change, negative = inhibition, usual class: inhibitors; 310,000 tested, 0.63% active; AID 720579; active = well fitted inhibition curve with a large enough effect; inconclusive = small, poorly fitted or top-dose-only effect; inactive = no such curve, though single readings can be large or run the other way; tested in A549 cells; note: nearly all actives have a fitted effect of over 35% in size; inactives centre near -10
Starred values were filed as active, the others as inactive; i = inactive; ? = inconclusive; nt = not tested or not shown; & = joins results of further samples; [ ] = dose if it differs, or a comment. % is set by controls: 0 for no effect and ±100 for the full control effect; potency is the fitted concentration of half-maximal effect.

SMILES	Vaccinia Venus	VACV mCherry inh
Cc1ccc(Oc2nc3ccccn3c(=O)c2/C=C(\C#N)C(=O)Nc2c(C)n(C)n(-c3ccccc3)c2=O)cc1	-24%	-8%
O=C(Nc1ccccc1)Nc1cc([N+](=O)[O-])ccc1F	-8%	-15%
CCOC(=O)CC(NC(=O)CCc1c(C)nc2c(c1C)c(=O)n(C)c(=O)n2C)c1ccc(OCC)c(OC)c1 (stereo not given)	3%	-12%
Cc1noc(/C=C/c2cccs2)c1S(=O)(=O)N1CCC(C(=O)NCc2ccccc2Cl)CC1	-11%	-6%
CCN(CC(=O)NC(C)C)C(=O)[C@H](C)NC(=O)c1ccc(Br)cc1	5%	i
O=C(CCC(=O)N1CCN(C2CCCCC2)CC1)Nc1nnc(C(F)(F)F)s1	-1%	nt
OC(c1ccccc1)c1nc(-c2csc3ccccc23)cs1 (stereo not given)	-25%	-16%
CCN(CC)C(=O)C1=C(C)N(CCC2=CCCCC2)C(=O)C(CC(=O)NCCc2ccccn2)C1 (stereo not given)	-13%	i
Cc1ccccc1C#CC1=CC(=O)CC(C)(C)C1	-19%	-17%
Nc1ncnc2c1ncn2[C@@H]1O[C@H](C(=O)N2CCC[C@@H]2C(=O)OCc2ccccc2)[C@@H](O)[C@H]1O	-2%	i
CC(C)CCn1c(=O)c2ccccc2n2c(CN(C)Cc3ccccc3)nnc12	-7%	-14%
CC1=N/C(=C\c2ccc([N+](=O)[O-])cc2)C(=O)N1c1cc(Cl)ccc1C	-13%	i
O=C(CSc1n[nH]c(=O)[nH]c1=O)Nc1ccc2c(c1)C(=O)c1ccccc1C2=O	8%	?
O=C(COC(=O)/C=C/c1cccc(Cl)c1)Nc1ccc2[nH]c(=O)[nH]c2c1	-9%	-13%
O=S(=O)(NC(=S)NC1CCCCC1)c1ccccc1	-8%	i
O=C(COc1ccc(S(=O)(=O)NC2CCCC2)cc1)N1CCCCCC1	-15%	i
O=C(NCc1ccccc1F)C1CCCN1C(=O)Nc1cccc(F)c1 (stereo not given)	-5%	-18%
CNC(=O)[C@H]1O[C@@H](n2cnc3c(NCc4cccc(I)c4)ncnc32)[C@H](O)[C@@H]1O	-5%&-18%&-11%	-8%
CN(C)c1ccc(C(CNS(=O)(=O)c2ccc([N+](=O)[O-])cc2)N2CCOCC2)cc1 (stereo not given)	-13%	?
CN1CCN(C(CNC(=O)c2ccc(F)cc2)c2ccc3c(c2)OCO3)CC1 (stereo not given)	-6%	-4%
COc1ccc(CNc2nc(-c3ccccc3)nn2C(=O)c2ccc([N+](=O)[O-])cc2)cc1	-14%	-25%
Cc1cc(C)cc(-n2nnc(-c3nsc(NC(=O)c4ccccc4Cl)n3)c2C)c1	-13%	-5%
C/C(=N\NC(=O)c1c(C)nc2ccccn12)c1ccc(O)cc1O	?	?
CCCc1[nH]nc2c1C(c1cccc(OC(=O)c3ccco3)c1)C(C#N)=C(N)O2 (stereo not given)	-7%	-17%
Cc1ccc(NC(=O)C(=O)NCC2CCCN2S(=O)(=O)c2cccs2)c(C)c1 (stereo not given)	-26%	-26%

Part of the list above, reformatted.
Compound,Vaccinia Venus,VACV mCherry inh
O=C(Nc1ccccc1)Nc1cc([N+](=O)[O-])ccc1F,-8%,-15%
CCOC(=O)CC(NC(=O)CCc1c(C)nc2c(c1C)c(=O)n(C)c(=O)n2C)c1ccc(OCC)c(OC)c1 (stereo not given),3%,-12%
Cc1noc(/C=C/c2cccs2)c1S(=O)(=O)N1CCC(C(=O)NCc2ccccc2Cl)CC1,-11%,-6%
CCN(CC(=O)NC(C)C)C(=O)[C@H](C)NC(=O)c1ccc(Br)cc1,5%,i

In the list so far, these contain fluorine.
SMILES	Vaccinia Venus	VACV mCherry inh
O=C(Nc1ccccc1)Nc1cc([N+](=O)[O-])ccc1F	-8%	-15%
O=C(CCC(=O)N1CCN(C2CCCCC2)CC1)Nc1nnc(C(F)(F)F)s1	-1%	nt
O=C(NCc1ccccc1F)C1CCCN1C(=O)Nc1cccc(F)c1 (stereo not given)	-5%	-18%
CN1CCN(C(CNC(=O)c2ccc(F)cc2)c2ccc3c(c2)OCO3)CC1 (stereo not given)	-6%	-4%

Continuation:
SMILES	Vaccinia Venus	VACV mCherry inh
Cc1c(Cl)cccc1NC(=O)C(=O)NCC(c1cccnc1)N1CCN(c2ccccc2)CC1 (stereo not given)	-20%	-13%
O=C(CN1CCCCCC1)Nc1ccc(F)c(F)c1	-14%	nt
CCOc1ccc(C2c3[nH]c4ccccc4c3CCN2C(=O)CSCc2ccc(F)cc2)cc1 (stereo not given)	-7%	-8%
C=CCNc1nc(N2CCOCC2)c(C#N)c2c1CN(C)CC2	-13%	-16%
Cc1ccc(S(=O)(=O)CCC(=O)OCc2nnc(-c3ccc([N+](=O)[O-])cc3)o2)cc1	-3%	-14%
CC(=O)c1cc2c(cc1C)CCCC2(C)C	0%	i
Cc1cc(Cl)ccc1NC(=S)N1CCN(C(=O)C2CCCO2)CC1 (stereo not given)	-12%	i
CCN(C(=O)CSc1ccc2ccccc2c1)C1CCS(=O)(=O)C1 (stereo not given)	-14%	i
O=C(NC1CCN(S(=O)(=O)c2ccc(F)cc2)CC1)c1ccco1	-2%	8%
COCCN(CCOC)Cc1cc(=O)oc2ccc3ccccc3c12	11%	11%
Cc1cccc(C)c1NC(=O)C(c1ccccc1OC(F)(F)F)N1CCN(C/C=C/c2ccccc2)CC1 (stereo not given)	2%	19%
COc1ccc(N=Cc2ccc(CNS(=O)(=O)c3ccc(Cl)cc3)o2)cc1	-27%	-3%
CCOC(=O)c1c(C)[nH]c(C(=O)NNC(=O)c2ccc(C(C)(C)C)cc2)c1C	-11%	i
COc1ccccc1CNC(=O)CCc1c(C)nc2cc(-c3ccccc3OC)nn2c1C	-14%&-11%	-4%
O=C(Nc1ccccc1C(=O)NCCCN1CCOCC1)c1cccc([N+](=O)[O-])c1	-15%	i
Cc1ccc(N2C(=O)C(CC(=O)Nc3ccc(F)cc3)N(CCC3=CCCCC3)C2=O)cc1 (stereo not given)	-23%	-20%
COc1ccc(Nc2oc(-c3ccc(F)cc3)nc2C#N)cc1	-10%	-18%
CCc1nnc(NS(=O)(=O)c2ccc(N/C=C\C(=O)c3ccc(F)cc3)cc2)s1	-9%	-10%
O=C(c1cccc(S(=O)(=O)NCc2ccccc2)c1)N1CCN(c2ccc(F)cc2)CC1	-21%	-13%
COc1ccccc1CNC(=O)Cn1c(-c2ccc(F)cc2)cc(C(C)=O)c1C	-21%	-21%
CN(C)CCN(C)Cc1ccccc1Sc1cccc2ccccc12	?	13µM*
COC(=O)COc1ccc(S(=O)(=O)N2CCCCC2)cc1[N+](=O)[O-]	-8%	-23%
Cn1ccc2c(-c3ccc(CO)cc3)cc3c(c21)C1CCC3O1 (stereo not given)	-8%	48%[activator]
O=C(NNC(=O)c1ccc2c(=O)n3c(nc2c1)CCC3)c1ccc(F)cc1	-2%	-14%
C[C@H]1CN=C(Nc2ccccc2)N1CCc1ccccc1	-14%	?

(next part)
SMILES	Vaccinia Venus	VACV mCherry inh
O=[N+]([O-])c1ccccc1Sc1nccn1Cc1ccccc1	-18%	i
COC(=O)C1(NC(=O)CNC(=O)OCc2ccccc2)CCCC1	-7%	-7%
CCN(C(=O)Cn1nc(C)c([N+](=O)[O-])c1C)c1c(N)n(Cc2ccccc2)c(=O)[nH]c1=O	-6%	-17%
COc1ccc(OC)c2c(C)cc(NCCN3CCOCC3)nc12	-23%	i
CN1CCN(Cc2c(O)ccc3cc(Br)ccc23)CC1	-15%	?
Cc1occc1C(=O)N/N=C/c1ccc2c(c1)OCO2	-7%	-8%
CCSc1ccccc1C(=O)Nc1cc(OC)c(OC)c(OC)c1	-8%	i
COc1cccc(Oc2ccc(OC)cc2C(=O)O)c1	11%	i
CCOc1ccc(C(C)NC(=O)Cc2ccccc2F)cc1OCC (stereo not given)	-3%	-5%
COc1ccc(-n2c(O)c(/C=C/C=Nc3ccccc3)c(=O)[nH]c2=O)cc1	353%[activator]	-14%
Cc1cc(C(=O)OCC(=O)NC2CCS(=O)(=O)C2)c2ccccc2n1 (stereo not given)	4%	2%
CCOC(=O)c1sc(NC(=O)CNCc2ccccn2)c(C(=O)OCC)c1C	-10%	?
COc1ccccc1CNC(=O)Nc1nc(C(N)C(C)C)cs1 (stereo not given)	-9%	i
CCC(C)c1ccc2oc(-c3ccc(NC(=O)c4ncn[nH]4)cc3)nc2c1 (stereo not given)	-7%	-14%
COC(OC)C1(C)C(C#N)=C(N)Oc2c1c(=O)oc1ccccc21 (stereo not given)	-24%	-2%
Nc1ccc(/C=C/c2ccnc3ccccc23)c(N)c1	17%	-12%
Cc1ccc(NC(=O)C2CCC(CNS(=O)(=O)c3ccc4c(c3)CCCC(=O)N4)CC2)cc1F (stereo not given)	-13%	-8%
COC(=O)c1cc2c(s1)-c1cc(F)ccc1OC2	-13%	-3%
CCN1C(=O)c2cccc3c(NC(=O)c4ccc(S(=O)(=O)N5CCOCC5)cc4)ccc1c23	-9%	-14%
Cc1ccc(S(=O)(=O)N2CCC(C(=O)OCC(=O)N(Cc3ccccc3)C(C)C)CC2)cc1C	-16%	-9%
Cc1nc2cc(C(=O)OCC(=O)NC34CC5CC(CC(C5)C3)C4)ccc2n1-c1ccccc1	-2%	-6%
COC1=C(C)C(=O)O[C@]12C(=O)C(C)=C1CCCCN3[C@H]([C@@H]4C[C@H](C)C(=O)O4)CC[C@]132	-4%	-6%
O=C(NCC12CC3CC(CC(C3)C1)C2)c1cc2n(n1)C(C(F)(F)F)CC(c1ccco1)N2 (stereo not given)	?	-33%
COc1ccccc1CNC(=O)C1CCCN(c2nnc(C)c3c(C)n(-c4ccccc4)nc23)C1 (stereo not given)	?	?
O=c1c2c(nc3nc(NCc4cccc(Cl)c4)[nH]n13)CCC2	-6%	i

(further entries)
SMILES	Vaccinia Venus	VACV mCherry inh
Cc1cccc(C(=O)NC(=S)Nc2ccc3[nH]c(=O)[nH]c3c2)c1	5%	-11%
O=S(=O)(c1cccs1)N1CCN(CC(O)COc2cc(Cl)ccc2Cl)CC1 (stereo not given)	?	?
CCSc1nnc(NC(=O)c2ccccn2)s1	?	22µM*
Cn1ncc2c(NNC(=O)Cc3ccccc3)ncnc21	-11%	0%
O=C(Nc1cccc(-c2nn[nH]n2)c1)c1csc2c1CCCC2	-10%	-11%
CCOc1ccc(NC(=O)Cn2c(=O)cc(C)c3c(C)nn(-c4cccc(Cl)c4C)c32)cc1	-11%	i
CCc1ccccc1NC(=O)C1CCCN(S(=O)(=O)c2ccc3[nH]c(=O)ccc3c2)C1 (stereo not given)	-9%	-14%
CCOc1ccc(CCNC(=O)COC(=O)c2n[nH]c3ccccc23)cc1OCC	-18%	i
CCOC(=O)CN1C(=O)N[C@@H](c2ccc(Br)cc2)C(C(=O)OC)=C1C	-8%	i
N#Cc1c(-c2ccccc2)c(-c2ccccc2)nn(CC(=O)NNC(=O)Nc2ccc(Cl)cc2)c1=O	-20%	-16%
CCN(CC)S(=O)(=O)c1cccc(C(=O)/C=C2/N(C)c3ccccc3C2(C)C)c1	-20%	-14%
O=C(NCCS(=O)(=O)N1CCN(c2ccccc2)CC1)C1CC1	-14%	i
O=C(O)C(Cc1ccccc1)N1C(=O)/C(=C/c2ccccc2)SC1=S (stereo not given)	-15%	i
CCCS(=O)(=O)N1CCN=C1SCc1cccc(C)c1	-14%	i
O=C(NCC(c1cccnc1)N1CCN(c2ccccc2F)CC1)c1ccco1 (stereo not given)	-1%	i
O=C1NC(c2ccccc2)=NC1(NS(=O)(=O)c1ccccc1)C(F)(F)F (stereo not given)	-11%	i
Cc1cccc(NC(=O)/C=C/c2ccc(Cl)cc2)n1	-20%	-20%
C=CCNC(=O)c1cc(Cl)cc(Cl)c1	3%	-5%
CCOc1cc(C(=O)OCC(=O)NCc2ccco2)cc(OCC)c1OCC	0%	nt
COc1ccc(CSc2nncn2C)cc1[N+](=O)[O-]	8%	?
COc1ccc(S(=O)(=O)N(C)Cc2nc(-c3cccc(C)c3)no2)cc1	3%	4%
CCOC(=O)Cn1c(=O)cc(-c2ccccc2)c2c(C)nn(C)c21	2%	-6%
COc1ccc2[nH]cc(C(=O)CN(C)CCc3ccc(OC)c(OC)c3)c2c1	-5%	-20%
Cc1ncc(CN=Cc2ccc(Cl)cc2)c(N)n1	-8%	i
CCOC(=O)Cc1csc(NC(=O)Cc2ccc(C)cc2)n1	6%	-1%

The results go on.
SMILES	Vaccinia Venus	VACV mCherry inh
CCn1cc(C(=O)O)c(=O)c2cc(F)c(N/N=C/c3ccccc3[N+](=O)[O-])cc21	-15%	-22%
Cc1ccccc1CN1CCN(C(=O)Cc2ccccc2)CC1	-9%	i
COc1cc(=O)n2c(c1C(=O)NCc1ccc3c(c1)OCO3)CCN(C(=O)c1ccc(C)cc1)CC2	0%	i
FC(F)C(F)(F)c1cc(-c2ccccc2)n[nH]1	-19%	-28%
O=C(Cc1cccc2ccccc12)NC(=S)Nc1cccc(C(=O)O)c1	-10%	i
c1ccc(-n2nnnc2-c2cccnc2)cc1	-13%	i
O=C(CCCCCNC(=S)Nc1ccc(Cl)cc1)C[N+](=O)[O-]	3%	-15%

Record cards (already shown). Values in the order: Vaccinia Venus	VACV mCherry inh
Listed for `CCOC(=O)CN1C(=O)N[C@@H](c2ccc(Br)cc2)C(C(=O)OC)=C1C` : -8%	i
Listed for `Cc1ccccc1C#CC1=CC(=O)CC(C)(C)C1` : -19%	-17%
